High-throughput results deposited in PubChem by Southern Research Institute.
Mtb H37Rv: Mycobacterium tuberculosis H37Rv growth inhibition, cell based, confirmatory dose response (AID 1949); M. tuberculosis H37Rv growth inhibition; most inactive calls were filed without a number and no value below 0 was filed; inhibition, % at 10 µg/mL, or IC50 in µg/mL where a hit was titrated; 100,000 tested, 1.6% active;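 active means confirmed in a dose series; inconclusive means about 50% or more but not retested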;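 further: bacteria grown 7 days with compound before Alamar blue readout; 0% = untreated bacteria and 100% = reference antibiotic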
* = called active by the depositor; i = inactive; ? = inconclusive. A portion of the library; the hit share may differ from the screen's.

smiles,Mtb H37Rv
O=[N+]([O-])c1ccc(N2CCN(S(=O)(=O)c3ccc(F)cc3)CC2)cc1N1CCCC1,i
CC(C)CNC(=O)c1cc(I)ccc1NC(=O)c1ccc(Cl)cc1,i
O=C(CSc1nnc(-c2ccccc2)c(-c2ccccc2)n1)Nc1ccc(S(=O)(=O)Nc2ncccn2)cc1,i
NC(=O)c1c(NC(=O)c2cccc(OCc3ccccc3)c2)sc2c1CCCC2,i
CCOC(=O)c1ccc(NC(=S)Nc2ccn(Cc3c(F)c(F)c(F)c(F)c3F)n2)cc1,i
COc1ccc(-n2c(C)c(C(C)=O)c3cc(OC(C)=O)ccc32)cc1,i
COc1ccccc1C(=O)N1CCC(N2CCN(c3ccccc3)CC2)CC1,i
CCc1ccc(C(=O)Nc2c(C)ccc3nsnc23)cc1,i
Cc1ccc(C)c(N2C(=O)CS/C2=C(/C#N)S(=O)(=O)c2ccccc2)c1,i
COc1cc2c(cc1NCc1cccnc1)oc1ccccc12,?
Cc1ccccc1OCCCCn1c(CCCNC(=O)C(C)(C)C)nc2ccccc21,50%
OCC#CCSc1nnc(-c2ccncc2)o1,i
Cc1ccc(-n2c3c(cc(C(=O)NCC(=O)c4ccccc4)c2=O)C(=O)CCC3)cc1,i
Cc1ccc(S(=O)(=O)Oc2ccc3c4c(c(=O)oc3c2)CCCC4)cc1,i
COc1ccc(S(=O)(=O)N2CCC(C(=O)NC(C)c3ccccc3)CC2)cc1 (stereo not given),i
Cc1ccc2c(C)c(C(=O)NCc3ccncc3)oc2c1,i
O=C1N/C(=N/N=C/c2cccs2)SC1Cc1cccc(Cl)c1Cl (stereo not given),i
O=C(NCCNC(=O)C12CC3CC(CC(C3)C1)C2)C12CC3CC(CC(C3)C1)C2,i
Cc1ccc(C)c(OCC(=O)Nc2ccc(C(=O)O)cc2NC(=O)COc2cc(C)ccc2C)c1,i
C=CCc1cccc2cc(C(=O)N3CCN(c4ccccc4)CC3)c(=O)oc12,10%

Arranged by length of the SMILES (rising): 3 of the compounds above.
smiles,Mtb H37Rv
OCC#CCSc1nnc(-c2ccncc2)o1,i
COc1ccc(S(=O)(=O)N2CCC(C(=O)NC(C)c3ccccc3)CC2)cc1 (stereo not given),i
Cc1ccc(C)c(N2C(=O)CS/C2=C(/C#N)S(=O)(=O)c2ccccc2)c1,i

Additional records:
smiles,Mtb H37Rv
CC(Sc1ccc(Cl)cc1)C(=O)Nc1ccccc1C(=O)O (stereo not given),i
CCCOc1ccc2ccccc2c1CNc1ccc(F)cc1,19%
Cc1ccc(SC(C)C(=O)Nc2c(C)cccc2C)cc1 (stereo not given),i
COc1ccc(Cl)cc1NC(=O)CC12CC3CC(CC(C3)C1)C2,29%
CS(=O)(=O)N(CC(=O)Nc1ccccc1C(=O)NCc1ccccc1)c1ccccc1Cl,i
COc1ccc(S(=O)(=O)n2ccc(C)n2)cc1,6%
O=C(O)c1cccc(S(=O)(=O)NCc2ccco2)c1,i
CCc1cc2c(=O)c(-c3nc4ccccc4n3C)coc2c(CN2CCN(CCO)CC2)c1O,i
Cc1ccccc1NCc1cccc(OCC(=O)Nc2ccccc2)c1,36%
COc1ccc(C(=O)O/N=C(\N)Cc2ccccc2OC)cc1,i

In a second layout: results already given.
SMILES: Cc1ccccc1NCc1cccc(OCC(=O)Nc2ccccc2)c1
  Mtb H37Rv = 36%
SMILES: COc1ccc(C(=O)O/N=C(\N)Cc2ccccc2OC)cc1
  Mtb H37Rv = i

Other compounds.
smiles,Mtb H37Rv
CCOC(=O)CNC(=O)c1cc2c(C)nn(-c3ccccc3)c2s1,i
O=Cc1cccn1CCCOc1ccc(Cl)cc1,3%
CC1=NN(c2cccc(C(=O)O)c2)C(=O)/C1=C\c1ccc(-c2cc(C)c(C)cc2[N+](=O)[O-])o1,0%
O=C(Nc1nc2ccc(Cl)cc2s1)c1cc2ccccc2o1,i
O=Cc1ccc(OCc2ccc([N+](=O)[O-])cc2)c(Cl)c1,i
Cc1ccc(C(=O)N2CCCCCC2)c(F)c1F,i
CCOc1ccc(NC(=S)NCCc2cccc(Cl)c2)cc1,40%
Cc1cc(C)c(NC(=O)C2CCCCC2)c(Cl)c1,?
CCN1CCN(CCCCOc2ccc(Cl)cc2)CC1,i
CC(C)C(=O)NC(=S)N(Cc1ccccc1)Cc1ccccc1,28%

Reformatted with each value named: part of the list above.
CCOC(=O)CNC(=O)c1cc2c(C)nn(-c3ccccc3)c2s1
  Mtb H37Rv: i

Cc1ccc(C(=O)N2CCCCCC2)c(F)c1F
  Mtb H37Rv: i

The listing continues:
smiles,Mtb H37Rv
Cc1ccc(Oc2c(C(F)(F)F)oc3c(CN4CCN(C)CC4)c(O)ccc3c2=O)cc1,2%
CNc1oc(-c2ccc(C)cc2)nc1C#N,6%
c1ccc(CSc2nnnc3c2sc2nc(N4CCOCC4)c4c(c23)CCCC4)cc1,i
COCCNC(=O)c1cc(-c2cccnc2)nc2ccc(Br)cc12,i
CCOc1ccc(NC(=O)C2COc3ccccc3O2)cc1 (stereo not given),17%
COC(=O)c1cc(NC(=O)c2ccccc2I)ccc1Cl,i
COc1cc(-c2nnc3ccc(C(F)(F)F)cn23)ccc1OCc1ccccc1,31%
NC(=O)N=Nc1c(O)[nH]c2ccccc12,i
Cc1ccc(C2C=C(c3ccc(Cl)cc3Cl)Nc3ncnn32)cc1 (stereo not given),i
CCOc1ccc(C2C(C(=O)c3ccco3)=C(O)C(=O)N2CCN(C)C)cc1 (stereo not given),i
Cc1c(OCc2c(F)cccc2F)ccc2c3c(c(=O)oc12)CCCC3,i
O=C1C2C3c4ccccc4C([N+](=O)[O-])(c4ccccc43)C2C(=O)N1C1CCCCC1 (stereo not given),i
COC(=O)c1ccccc1N(C)C(=O)c1cc2ccccc2oc1=O,2%
CCc1cc2c(C)cc(=O)oc2cc1OCC(=O)c1cc(OC)c(OC)c(OC)c1,i
O=c1c2cc([N+](=O)[O-])ccc2ncn1-c1ccccc1,i
O=C(COc1ccc(F)cc1)NC12CC3CC(CC(C3)C1)C2,i
CCCC(C)n1[nH]c(=O)c2c(C)cc(=O)[nH]c21 (stereo not given),i
COc1cc2c(cc1OC)C(c1cccc(C(F)(F)F)c1)CC(=O)N2 (stereo not given),i
CCc1cc(Br)cc(C)c1NC(=O)CSc1nnc(-c2ccccc2)n1CCOC,i
O=C1CCCN1CCCNC(=S)Nc1ccc(F)cc1,i
CCC(CC)C(=O)N1CCN(c2ccccc2)CC1,i
CC1CC(CC(=O)NC(=S)Nc2ccccc2Cl)C(=O)O1 (stereo not given),i
CC(=O)NS(=O)(=O)c1ccc(NC(=S)NC(=O)C(C)(C)C)cc1,13%
CCCc1sc(N2CCN(S(=O)(=O)c3ccc(C)cc3)CC2)nc1-c1ccccc1,i
Cc1ccc(NC(=O)CCCc2ccccc2)c(NC(=O)CCCc2ccccc2)c1,i
CCc1ccc(-c2csc(N)n2)cc1,i
CC(=O)NC(C)c1nc2ccccc2n1Cc1ccc(C)cc1 (stereo not given),i
COc1ccc(CC(=O)N2CCN(c3cccc(C)c3C)CC2)cc1,11%
Cc1ccc(C(=O)Nn2c(-c3ccccc3)nc3ccccc3c2=O)cc1,i
Cc1ccc(C(=O)NC(=S)Nc2ccc(N3CCOCC3)cc2)c(C)c1,i
CCN(C(=S)NC(=O)c1ccc(Br)o1)c1ccccc1,4%
COc1cc2c(cc1OC)C(c1cccc(Br)c1)CC(=O)N2 (stereo not given),i
COc1ccccc1-c1nc2ccccc2nc1-c1ccccc1OC,i
N#CCCN(CCC#N)C(=O)c1cccc(NC(=O)c2ccccc2)c1,i
O=C(CN(c1ccc(Cl)c(Cl)c1)S(=O)(=O)c1ccccc1)NC1CC2CCC1C2 (stereo not given),i
CC(NS(=O)(=O)c1ccc(CCC(=O)Nc2cccc(F)c2)cc1)c1ccccc1 (stereo not given),i
Cc1cc(Br)cc(C)c1OCC(=O)Nc1ccc(S(=O)(=O)Nc2nccs2)cc1,i
CS(=O)(=O)N(CC(=O)N1CCCCCC1)Cc1ccccc1,i
CNC(=S)C1COc2ccccc2O1 (stereo not given),i
COc1ccc(NC(=S)NC(=O)c2ccc(Br)o2)cc1,i
O=C(CSc1nc2ccccc2s1)NCc1ccc2c(c1)OCO2,1%
O=C(O)C1C2C=CC(C2)C1C(=O)N1CCN(C(c2ccccc2)c2ccccc2)CC1 (stereo not given),i
O=c1ccc2ccc(OCc3cccc(C(F)(F)F)c3)cc2o1,i
O=C(CCN1C(=O)c2ccccc2C1=O)Nc1ccccc1C(=O)NC1CCCCCC1,i
O=C(CSc1nnc(-c2cccs2)n1-c1ccccc1)Nc1ccnc2ccccc12,i
COc1ccc(Br)cc1C(=O)Nc1nc(-c2ccc(Cl)cc2)cs1,i
O=C(O)C1C2C=CC3(O2)C1C(=O)N1c2ccccc2C2OCCC2C13 (stereo not given),i
CN1C(=O)C(CC(=O)Nc2ccc(Cl)cc2)N(Cc2ccco2)C1=S (stereo not given),i
CCCCc1cc(=O)oc2c(C)c(OCC(=O)N3CCCC3)ccc12,i
CC1CCN(C(=O)CN(Cc2ccccc2)S(=O)(=O)c2ccc(F)cc2)CC1,i

The listing continues:
smiles,Mtb H37Rv
CSc1cccc(NC(=O)CN(c2ccccc2F)S(=O)(=O)c2ccc(C)cc2)c1,i
CCCOC(=O)C1=C(C)NC2=C(C(=O)CCC2)C1c1ccc(Cl)cc1Cl (stereo not given),8%
Cc1ccc(C(=O)N2CCC(C(=O)NCCO)CC2)cc1,i
CCOC(=O)c1cnc2c(-c3ccccc3)c(C(F)(F)F)nn2c1C,i
CCOC(=O)c1ccc(NC(=O)CN(c2ccccc2CC)S(=O)(=O)c2ccccc2)cc1,i
O=C(Nc1ccccc1Br)c1cn(-c2ccccc2)nc1-c1cccs1,22%
Cc1ccc(OCCCCN2C(=O)c3ccccc3S2(=O)=O)c(C)c1,3%
O=C(Nc1ccc(I)cc1)C1CCN(C(=O)c2ccccc2)CC1,i
S=C(Nc1cnc2ccccc2c1)NC1CCCC1,i
CN1CCN(CC(O)COCc2ccccc2)CC1 (stereo not given),i
CCOC(=O)c1c(NC(=S)NC(=O)c2ccccc2Br)sc2c1CCC2,i
O=C(CSc1ncn[nH]1)Nc1ccc(-c2nc3ccccc3s2)cc1,i
COc1ccc(CNCCO)cc1OC,i
CCOC(=O)c1c(NC(=O)COc2ccc(OC)cc2)sc(C(=O)N(CC)CC)c1C,i
CCOc1ccccc1NC(=O)C1CC(=O)N(c2ccc(C(C)C)cc2)C1 (stereo not given),i
COC(=O)c1cccc(NC(=O)/C=C/c2ccc(OC)cc2)c1,i
COc1ccc(CCNCc2ccc(OC)c(Br)c2)cc1,i
O=[N+]([O-])c1cc(-c2nnc(-c3ccccc3)o2)ccc1-n1c(-c2ccccc2)nnc1-c1ccccc1,i
O=C1CC(C(=O)NCc2ccco2)C2(CCCCC2)O1 (stereo not given),i
O=C(Nc1cccc(Cl)c1)NC1CC1,i
CC1=C(C(=O)Nc2ccc(F)cc2)C(c2ccco2)C(C#N)=C(SCC(=O)Nc2nc3ccccc3s2)N1 (stereo not given),i
COc1ccc(CCNC(=O)CN(c2ccc(Cl)cc2)S(C)(=O)=O)cc1OC,i
CCOc1cc(C2NC(=S)NC(C)=C2C(=O)NCc2ccccc2)c(Cl)cc1O (stereo not given),i
CCOc1ccc(C(=O)CCNC(Cc2cnc[nH]2)C(=O)O)cc1 (stereo not given),i
CCOc1ccc(-c2csc(NC(=O)CCCOc3ccc(C)cc3)n2)cc1,i
CCC(C(=O)Nc1nc(C)c(C(=O)OC)s1)c1ccccc1 (stereo not given),0%
CCOc1ccc(CNC(=S)Nc2ccccc2)cc1Cl,1%
COc1cc2ccccc2cc1C(=O)Nc1ccc(N2CCN(C(=O)c3ccc(C)cc3)CC2)cc1,i
COc1ccc(-c2noc(C(C)Oc3ccc(Br)cc3)n2)cc1OC (stereo not given),i
COc1cc(/C=C/c2nc3ccccc3c(=O)n2CCc2ccccc2)ccc1O,i
O=C(CN1CCc2ccccc2C1)NC1CC2CCC1C2 (stereo not given),i
COc1ccc(Cl)cc1S(=O)(=O)N1C(C)CCCC1C (stereo not given),5%
N#Cc1cc(C#N)cc(Oc2ccc(F)cc2)c1,0%
Cc1cc(=O)n(-c2ccc(C(=O)O)cc2)[nH]1,i
COc1ccc(-c2cc(C#N)c(NC(=O)c3cccs3)o2)cc1,i
O=C(Cc1ccc(F)cc1)Nc1ccc(C(=O)O)cc1,i
CC(C)CC(C(=O)Oc1ccc2c3c(c(=O)oc2c1)CCC3)N1C(=O)c2ccccc2C1=O (stereo not given),i
CCOC(=O)CNC(=O)c1sc2cc(C)ccc2c1Cl,i
CCc1ccc(OCC(=O)Nc2cccc(F)c2)cc1,1.7µg/mL*
Cc1ccccc1N1CCN(C(=O)c2c(C)oc3cc4c(C(=O)N5CCN(c6ccccc6C)CC5)c(C)oc4cc23)CC1,3%
CCOC(=O)C(Cc1c(F)cccc1F)(NC(C)=O)C(=O)OCC,i
